# Screens from PubChem.
# Luc counter: Kinase-Glo luciferase inhibition (counter-screen). Potency, µM (highest dose often 38.3 µM), for the others: top-dose activity change, negative = inhibition, most hits filed as inhibitors. Kinase-Glo luciferase, ATP luminescence, 8 min. Q27757. 200,000 compounds, 0.28% hits; also: % is scaled to controls: 0 for no effect and ±100 for the full control effect; nearly all actives have a fitted effect of over 60% in size
#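 Inhibition of Kinase-Glo luciferase light generation was assessed at 10 uM ATP in pH 7.2 imidazole buffer, with luminescence measured after eight minutes at ambient temperature.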
# NPSR antag: neuropeptide S receptor (human) antagonism, cAMP. Q6W5P4. CHO-NPSR cells, cAMP TR-FRET, antagonist mode. Potency, µM (highest dose often 38.3 µM), without a hit: at the top dose activity change, negative = inhibition, hits mostly inhibitors. 220,000 compounds, 1% hits; also: % is scaled to controls: 0 for no effect and ±100 for the full control effect; nearly all actives have a fitted effect of over 50% in size; many of its hits are not listed in these tables
# Target sequence (Q6W5P4 whole entry, looked up): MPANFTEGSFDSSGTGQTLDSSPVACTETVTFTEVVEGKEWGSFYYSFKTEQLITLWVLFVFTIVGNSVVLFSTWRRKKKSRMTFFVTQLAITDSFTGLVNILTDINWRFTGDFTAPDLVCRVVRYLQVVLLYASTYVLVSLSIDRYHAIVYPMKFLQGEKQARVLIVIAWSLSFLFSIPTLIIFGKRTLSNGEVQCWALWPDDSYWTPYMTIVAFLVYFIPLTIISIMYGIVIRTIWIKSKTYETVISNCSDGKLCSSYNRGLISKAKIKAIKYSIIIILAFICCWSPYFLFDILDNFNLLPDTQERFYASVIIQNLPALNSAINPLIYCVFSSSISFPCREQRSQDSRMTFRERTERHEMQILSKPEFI
# Epigenetic derep: regulators of epigenetic silencing causing reporter derepression in mouse cells. murine LDR cells, GFP reporter derepression, 30 h. Potency, µM (top dose mostly 53.9 µM), for the others: top-dose GFP activation, actives largely listed as activators. 280,000 compounds, 0.2% hits. AID 1865; also: % of control where 0% means no effect; nearly all actives have a fitted effect of over 60% in size
#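 Murine LDR cells carrying a silenced, genomically integrated CMV-driven GFP reporter were exposed to compound for 30 hours at 37 C. After PBS washes, GFP-positive cells (20–120 um objects) were counted by laser-scanning microplate cytometry.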
# HttQ103 aggreg: mutant huntingtin aggregation inhibition; PC12 HttQ103-GFP aggregates, Acumen cytometry, 40 h; 220,000 compounds, 1.1% hits; Potency, µM (titrated, usually from 46.1 µM), for inactives: at the top dose activity change, negative = inhibition, hits mostly inhibitors; also: % is scaled to controls: 0 for no effect and ±100 for the full control effect; nearly all actives have a fitted effect of over 60% in size
#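 Aggregates are detected as GFP objects 1–25 µm with signal 6 STDEV over background in lysates of induced PC12 cells. These carry Huntingtin exon 1 with 103 glutamines fused to GFP under an ecdysone promoter; compounds titrated.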
# L3MBTL1 inh: L3MBTL1 (human) inhibition. Q9Y468. AlphaScreen L3MBTL1–H3K9me1 peptide binding. Potency, µM (highest dose often 57.1 µM), for inactives: at the highest dose activity, negative = inhibition, usual class: inhibitors. 230,000 compounds, 0.66% hits. AID 485360; also: % is scaled to controls: 0 for no effect and ±100 for the full control effect; nearly all actives have a fitted effect of over 60% in size
#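 First, the protein-peptide complex forms for 30 min at room temperature (L3MBTL1 50 nM, biotinylated H3K9me1 peptide 75 nM). Next, compounds are pin-transferred and incubated 30 min. Finally, AlphaScreen beads are added and read after 30 min.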
# Starred values were filed as active, the others as inactive; ? = inconclusive; · = no result given; & = joins results of further samples; [ ] = dose if it differs, or a comment. Calls follow the shape of the dose curve; as a rule, active = well fitted curve in the direction sought with a large enough effect; inconclusive = small, poorly fitted or top-dose-only effect, or another doubt; inactive = no such curve, though single readings can be large; an effect the other way counts as inactive or inconclusive. Potency is read from the fitted curve at half-maximal effect. These rows are one share of the data; the hit share may differ from the screen's.
# Below each SMILES – Luc counter, NPSR antag, Epigenetic derep, HttQ103 aggreg, L3MBTL1 inh
1. CCOC(=O)c1n[nH]c2ccccc12
 : 2%, 15%, -1.0%, 13%, 16%[11.4 µM]
2. O=C(CCS(=O)(=O)c1ccc(Br)cc1)N1CCN(c2ccccc2F)CC1
 : 3%, -15%[46.1 µM], 0.0%, 3%, ·
3. Cc1nn(CC(=O)O)c(C)c1Cl
 : -2%, -8%[46.1 µM], 0.1%, -13%, ·
4. CCNC(=S)NNc1nncc2ccccc12
 : -1%, -55%, 4.4%, -2%, -14%
5. CC(N)=O
 : -6%, -8%[46.1 µM], -2.4%, ·, ·
6. CC(C)(N=NC(C)(C)C(=N)N)C(=N)N
 : -6%[7.66 µM], ·, -1.3%, ·, ·
7. O=C(Nc1cnccn1)Nc1ccc(Cl)cc1Cl
 : -5%, 5%, 1.1%, -21%, ·
8. Cc1nn(C)cc1C(C(=O)NC1CCCCC1)N(C(=O)c1cnccn1)c1ccc(Oc2ccccc2)cc1 (stereo not drawn)
 : -1%, 20%, -1.6%, -2%, 5%
9. O=C(c1ccco1)N(Cc1ccc([N+](=O)[O-])cc1)c1ccc(Br)cc1
 : 0%, ?, -0.9%, 13%, -9%
10. CCCCn1c(=O)nc2n(-c3ccc(C)cc3)c3ccccc3cc-2c1=O
 : -3%, -36%, -0.9%, -8%, 0%
11. CCc1cccc(N(C(=O)c2csnn2)C(C(=O)NC(C)(C)C)c2ccncc2)c1 (stereo not drawn)
 : 3%, -15%, 9.7%, 6%[9.22 µM], -10%
12. CCCNC[C@H](O)COc1ccccc1C(=O)CCc1ccccc1
 : -4%, ?, 0.0%, ·, ·
13. OCc1ccccc1O[C@@H]1O[C@H](CO)[C@@H](O)[C@H](O)[C@H]1O
 : -3%, ·, -0.3%, ·, ·
14. Cc1cc(O)cc(=O)o1
 : -7%, ·, 2.7%, ·, ·
15. O=C1C2C3c4ccccc4C(c4ccccc43)C2C(=O)N1Cc1ccccn1 (stereo not drawn)
 : 12%, -4%, 0.1%, -10%, ·

# Down the list, quoted from above:
# Luc counter, entries 7 to 14 → -5%, -1%, 0%, -3%, 3%, -4%, -3%, -7%

# From compound 10 up to 15, as listed above:
# Below each SMILES – Luc counter, NPSR antag, Epigenetic derep, HttQ103 aggreg, L3MBTL1 inh
10. CCCCn1c(=O)nc2n(-c3ccc(C)cc3)c3ccccc3cc-2c1=O
 : -3%, -36%, -0.9%, -8%, 0%
11. CCc1cccc(N(C(=O)c2csnn2)C(C(=O)NC(C)(C)C)c2ccncc2)c1 (stereo not drawn)
 : 3%, -15%, 9.7%, 6%[9.22 µM], -10%
12. CCCNC[C@H](O)COc1ccccc1C(=O)CCc1ccccc1
 : -4%, ?, 0.0%, ·, ·
13. OCc1ccccc1O[C@@H]1O[C@H](CO)[C@@H](O)[C@H](O)[C@H]1O
 : -3%, ·, -0.3%, ·, ·
14. Cc1cc(O)cc(=O)o1
 : -7%, ·, 2.7%, ·, ·
15. O=C1C2C3c4ccccc4C(c4ccccc43)C2C(=O)N1Cc1ccccn1 (stereo not drawn)
 : 12%, -4%, 0.1%, -10%, ·

# (listing goes on)
# Below each SMILES – Luc counter, NPSR antag, Epigenetic derep, HttQ103 aggreg, L3MBTL1 inh
16. Cc1ccc(S(=O)(=O)N[C@H](C(=O)N2CCC(C(=O)N3CCC[C@H]3C(=O)O)CC2)C(C)C)cc1
 : -3%, 5%[46.1 µM], -0.8%, -10%, -6%
17. Cc1cccc(C)c1NC(=O)CN1CCNCC1
 : 1%, -2%[46.1 µM], -9.1%, 2%, ·
18. O=C(Cc1ccc(Cl)cc1)Nc1ccc(N2CCN(C(=O)c3ccco3)CC2)cc1
 : 4%, -15%[46.1 µM], -1.0%, -7%, 33%[activator][11.4 µM]
19. NC(=O)c1cccnc1Nc1ccccc1Cl
 : 0%, 4%, -1.0%, -4%, 1%
20. Cc1ccccc1Nc1nnc(SCC(=O)NCc2ccco2)s1
 : 2%, -6%[46.1 µM], -1.0%, 30%, ?
21. O=C(CSCc1ccc(F)cc1)N1CCN(c2ccccc2)CC1
 : 7%, -17%[46.1 µM], 1.0%&-1.0%, 0%, -7%
22. O=C1OCCN1/N=C\c1ccc([N+](=O)[O-])o1
 : -2%[17.1 µM], ·, 2.5%[16.9 µM], ·, ·
23. COc1ccc(N2CCN(C(=O)CC3NC4CCCCC4NC3=O)CC2)cc1 (stereo not drawn)
 : 2%, 1%[46.1 µM], 0.0%, 15%, -1%[11.4 µM]
24. O=C(O)C1CC=CCC1C(=O)NCc1cn2ccccc2n1 (stereo not drawn)
 : 0%, -11%[46.1 µM], 0.9%, -4%, 4%
25. CCCn1c(=O)c(C)cn2nc(N)nc12
 : 0%, ·, -1.1%, ·, ·
26. Cc1cc2c(c(SCC#N)n1)C(=O)OC2
 : 0%, 8%, 0.9%, -13%, -10%
27. COc1cc2nc(C3CCC3)nc(N3CCN(c4ccccc4OC)CC3)c2cc1OC
 : -6%, -55%, -0.2%, -30%, 28µM*
28. CCCC(=O)Nc1ccc2c(c1)nc1n2CCN(C2CCCCC2)C1
 : 0%, -44%, 2.1%, ·, -9%
29. CC(C)(C(=O)O)c1ccc(C(O)CCCN2CCC(C(O)(c3ccccc3)c3ccccc3)CC2)cc1 (stereo not drawn)
 : -4%&1%&-2%, -10%[46.1 µM], 0.0%&0.6%&-3.3%, ·, ·
30. COc1ccc(OC2C(=O)N(CCc3ccc(OC)c(OC)c3)C2c2ccc3c(c2)OCO3)cc1 (stereo not drawn)
 : 6%, -21%[46.1 µM], -2.3%, -20%, -7%

# Rewritten as tab-separated lines: part of the list above.
nr	Structure	Luc counter	NPSR antag	Epigenetic derep	HttQ103 aggreg	L3MBTL1 inh
27	COc1cc2nc(C3CCC3)nc(N3CCN(c4ccccc4OC)CC3)c2cc1OC	-6%	-55%	-0.2%	-30%	28µM*
28	CCCC(=O)Nc1ccc2c(c1)nc1n2CCN(C2CCCCC2)C1	0%	-44%	2.1%	·	-9%
29	CC(C)(C(=O)O)c1ccc(C(O)CCCN2CCC(C(O)(c3ccccc3)c3ccccc3)CC2)cc1 (stereo not drawn)	-4%&1%&-2%	-10%[46.1 µM]	0.0%&0.6%&-3.3%	·	·

# Continuation.
# Short keys: A = Luc counter; B = NPSR antag; C = Epigenetic derep; D = HttQ103 aggreg; E = L3MBTL1 inh
31) CC1(C)CC(=O)C2=C(C1)OC(N)=C(C#N)C2c1ccccc1OC(=O)N1CCOCC1 (stereo not drawn)
  A = 2% | B = -8%[46.1 µM] | C = 1.2% | D = -7% | E = ·

32) Clc1ccc(-c2noc(CN3CCN(c4ccccc4)CC3)n2)cc1
  A = 1% | B = -12%[46.1 µM] | C = -0.8% | D = -29% | E = -3%

33) CCOC(=O)/C(C#N)=C/C1=C(N2CCCC2)CC(C)(CC)OC1 (stereo not drawn)
  A = -1% | B = -18%[46.1 µM] | C = -0.8% | D = 26% | E = ·

34) CNc1ccc(Oc2nc([N+](=O)[O-])nn2C)cc1
  A = -4% | B = 7% | C = 1.1% | D = -2% | E = -6%

35) O=c1c(-c2ccc(O)cc2)coc2cc(O)ccc12
  A = -7% | B = -16%[46.1 µM] | C = 1.8%&-1.2%&0.0%&6.4%&5.3%&-2.8% | D = · | E = ·

36) O=C(O)c1ccccc1/C=N/Nc1nc(N2CCCCC2)nc(N2CCCCC2)n1
  A = 1% | B = -11% | C = -0.2% | D = 1%[9.22 µM] | E = 0%

37) Cc1cc(C(F)(F)F)nc(SCC(=O)NC2=NC(=O)C(C)S2)n1 (stereo not drawn)
  A = 1% | B = -9%[46.1 µM] | C = -1.6% | D = 25% | E = 5%

38) CC(C)c1ccc(NC(=O)COC(=O)C2=COCCO2)cc1
  A = 1% | B = -8%[46.1 µM] | C = -1.9% | D = 15% | E = ·

39) O=C(Nc1ccsc1C(=O)NC1CC1)c1ccccc1
  A = 2% | B = -13%[46.1 µM] | C = -0.9% | D = -5% | E = 1%

40) C=CCN1C2CCCC1CC(NC(=S)Nc1cccc(OC)c1)C2 (stereo not drawn)
  A = 2% | B = 4% | C = -1.0% | D = 1%[9.22 µM] | E = -17%

41) CCOC(=O)/C(C#N)=C\C1=C(N2CCCC2)CC(C)(CC)OC1 (stereo not drawn)
  A = 1% | B = -7%[46.1 µM] | C = -2.0% | D = 2% | E = -3%

42) C[N+]1(C)CC[C@@H](OC(=O)[C@@](O)(c2ccccc2)C2CCCC2)C1
  A = 3%[17.1 µM] | B = · | C = -0.3%[16.9 µM] | D = · | E = ·

43) CC(CC(=O)Nc1nc2ccccc2[nH]1)c1ccccc1 (stereo not drawn)
  A = -2% | B = -4%[46.1 µM] | C = -0.7% | D = ? | E = ·

44) Cn1c(NCCN2CCOCC2)nc2c1c(=O)n(Cc1cccc(Cl)c1)c(=O)n2C
  A = -1% | B = -7%[46.1 µM] | C = 2.0% | D = -11% | E = ·

45) CCCc1cc(C(N)=O)c(NC(C)=O)s1
  A = -1% | B = -6%[46.1 µM] | C = 1.2% | D = 1% | E = ·

46) Cc1ccccc1CS(=O)(=O)Cc1ccc(C(=O)NCCCN2CCOCC2)o1
  A = -1% | B = -3%[46.1 µM] | C = 1.0% | D = -13% | E = 4%

47) CCOc1ccccc1C(=O)N1CCOCC1
  A = -2% | B = ? | C = 4.4% | D = 10% | E = ·

48) O=C(O)COCCN1CCN([C@H](c2ccccc2)c2ccc(Cl)cc2)CC1
  A = · | B = -6% | C = 0.0% | D = · | E = ·

49) O=C(CN1CCN(C/C=C/c2ccccc2)CC1)Nc1cc([N+](=O)[O-])ccc1Cl
  A = 0% | B = 1% | C = 0.0% | D = -11% | E = -4%

50) COc1ccc(C(=O)N/C(=C/c2cccs2)c2nc3ccccc3[nH]2)cc1OC
  A = 2% | B = 7% | C = -1.6% | D = 6% | E = -2%
